# YopH inh: YopH tyrosine phosphatase inhibitors, primary screen, biochemical, fluorescence Ex485/Em525. 0.16% of 140,000 active. AID 898, 2007. inhibition, %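 (about 10 µM by stock and volumes)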;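 active means inhibition of 50% or more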;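 further: controls were vehicle for no effect and minimum signal wells for full effect; inactives centre near -20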
# Arbovirus anti: antivirals against arbovirus infection, primary screen, cell-based, full library, 10K replicate subset; arbovirus infection cell-based antiviral screen; inhibition, % at 10 µM; 0.37% of 200,000 active;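 active means inhibition from about 30%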;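 further: bluetongue infection of BSR cells; cell survival read as ATP light after 72 h; 0% = infected wells without compound and 100% = uninfected wells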
# RecA splice inh: Mtb RecA intein splicing inhibitors, primary screen, biochemical, fluorescence, HTS. Protein RecA (Mycobacterium tuberculosis (strain ATCC 25618 / H37Rv)), P9WHJ3. cell-free RecA intein splicing. inhibition, %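 (about 9 µM by stock and volumes)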. 0.75% of 290,000 active. AID 2221, 2009; in the data active means inhibition above about 30%; inconclusive means no clear call, values can overlap the other calls;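 further: 0% = vehicle wells and 100% = reference inhibitor control wells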
# Target sequence (P9WHJ3 whole entry, looked up, canonical isoform): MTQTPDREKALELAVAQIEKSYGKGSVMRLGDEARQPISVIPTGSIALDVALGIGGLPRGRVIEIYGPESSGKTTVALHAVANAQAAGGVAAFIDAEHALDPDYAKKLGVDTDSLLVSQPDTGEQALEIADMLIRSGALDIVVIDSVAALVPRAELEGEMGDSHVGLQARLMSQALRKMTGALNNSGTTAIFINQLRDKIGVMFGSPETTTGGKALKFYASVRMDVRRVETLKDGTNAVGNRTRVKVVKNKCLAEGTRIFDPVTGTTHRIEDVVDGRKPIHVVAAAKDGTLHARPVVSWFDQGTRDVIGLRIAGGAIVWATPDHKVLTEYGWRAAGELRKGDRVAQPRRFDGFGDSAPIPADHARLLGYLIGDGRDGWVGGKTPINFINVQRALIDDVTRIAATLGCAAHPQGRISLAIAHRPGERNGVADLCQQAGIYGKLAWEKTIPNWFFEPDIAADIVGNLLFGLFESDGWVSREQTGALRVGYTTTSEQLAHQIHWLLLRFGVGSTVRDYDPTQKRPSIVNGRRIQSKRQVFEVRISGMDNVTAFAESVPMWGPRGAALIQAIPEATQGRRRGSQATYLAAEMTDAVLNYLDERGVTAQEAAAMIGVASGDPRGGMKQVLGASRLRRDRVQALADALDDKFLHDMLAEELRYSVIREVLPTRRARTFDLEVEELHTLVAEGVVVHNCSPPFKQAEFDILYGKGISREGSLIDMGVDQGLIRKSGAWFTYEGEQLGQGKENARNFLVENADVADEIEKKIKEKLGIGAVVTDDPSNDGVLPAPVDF
# Mtb growth: M. tuberculosis H37Rv growth inhibitors, H37Rv strain (AID 1626) | M. tuberculosis H37Rv growth inhibition; higher % means a stronger effect | inhibition, % at 10 µM, or IC50 in µM where a hit was titrated | 0.95% of 220,000 active;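 active means confirmed in a dose series; inconclusive means inhibition above 80% but not taken into the dose series; inactive means below 80% or under 30% at every dose of the series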;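 further: bacteria incubated seven days before Alamar blue readout; 0% = bacteria only wells and 100% = bacteria with antibiotic wells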
# Mtb bLac sens: beta-lactam sensitization of Mtb H37Rv, H37Rv | M. tuberculosis H37Rv growth with meropenem, percent inhibition; hits of this screen are not shown here | inhibition, % at 25 µM | 0.27% of 330,000 active | AID 434955, 2010;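 active means about 74% or more and at least 40 points above the plate without the antibiotic, then above 30% in a dose series; inconclusive means first-round hits that could not be retested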;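 further: growth measured after seven days incubation then overnight dye step; 0% = bacteria only wells and 100% = bacteria with antibiotic; twin plates without the antibiotic show which effects depend on it; some results filed as inactive read as strong as hits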
# Arbovirus anti repeat: further read-out of Arbovirus anti, marked with its call; inhibition, %; measured here: 10K subset replicate screen; many hits read low in the repeat;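 first of two repeat runs on a subset; 0% = infected and 100% = uninfected wells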
# * hit, by the source's call; u = inconclusive; x = not tested or not shown.
SMILES,YopH inh,Arbovirus anti,RecA splice inh,Mtb growth,Mtb bLac sens,others
Cn1nnnc1SCC(=O)C(C)(C)C,x,-3,-4.7,-7%,-12,
Cc1ccc(NC2=C(Cl)C(=O)OC2OC(=O)c2ccco2)cc1 (configuration not stated),-25,12,-0.4,5%,5,
C/C(=N\OCc1nc2ccccc2c(=O)n1/N=C/c1cc([N+](=O)[O-])ccc1O)c1ccccc1,x,x,0.9,-11%,-1,
C/C(=N\NS(=O)(=O)c1ccccc1)c1ccc2c(c1)OCCO2,-55,-5,-1.3,9%,-10,
CN(C)S(=O)(=O)c1ccc(NC(=O)CN2CCCCCC2)cc1,x,x,-2.0,x,-1,
O=C(Cc1ccccc1)NC(NC(=O)Cc1ccccc1)c1cccc([N+](=O)[O-])c1,x,-10,1.8,-3%,-1,
CCCCNC(=O)c1cc2cc(OC)ccc2[nH]1,x,x,0.4,-7%,37,
Cn1cnc(S(=O)(=O)N2CCN(c3cccc(Cl)c3)CC2)c1,x,x,-1.3,x,-2,
COc1ccc(NC(=O)Nc2ccc3nc(C)c(C)nc3c2)cc1,-12,9,1.0,-8%,-9,
CCCCCCNc1cc2n(c(=O)n1)CCc1cc(OC)c(OC)cc1-2,-29,-24,x,-4%,22,
O=C(N/N=C/c1ccc([N+](=O)[O-])o1)c1cn(-c2ccccc2)nc1-c1ccccc1,-19,-30,2.5,u,88,
Cc1ccc(Nc2nc(C(=O)N3CCC(C(=O)NCc4ccccc4)CC3)cs2)cc1,x,x,-1.0,x,-9,

# Compounds shown so far containing a furan ring, fused or not:
SMILES,YopH inh,Arbovirus anti,RecA splice inh,Mtb growth,Mtb bLac sens,others
Cc1ccc(NC2=C(Cl)C(=O)OC2OC(=O)c2ccco2)cc1 (configuration not stated),-25,12,-0.4,5%,5,
O=C(N/N=C/c1ccc([N+](=O)[O-])o1)c1cn(-c2ccccc2)nc1-c1ccccc1,-19,-30,2.5,u,88,

# Further structures:
SMILES,YopH inh,Arbovirus anti,RecA splice inh,Mtb growth,Mtb bLac sens,others
COCc1cc(C)nc(OCC(=O)N/N=C\c2cc(C)n(-c3cccc(C(F)(F)F)c3)c2C)c1C#N,-15,7,0.1,0%,-1,
COc1ccc(NC(=O)C(C)N2c3cccc4cccc(c34)S2(=O)=O)c(OC)c1 (configuration not stated),x,x,-4.2,x,-1,
CN(C(=S)NC(=O)c1ccc(Br)o1)c1ccccc1,-19,9,-4.3,0%,54,
COc1ccc2oc(=O)c(C(=O)NCc3ccc4c(c3)OCO4)cc2c1,-19,-2,-1.4,8%,9,
CCCS(=O)(=O)N1CCCC(c2nc(-c3cccc(OC)c3)no2)C1 (configuration not stated),-44,-4,-3.6,-4%,-5,
O=C(NC1CCCc2ccccc21)C(Cc1ccccc1)NS(=O)(=O)c1cccs1 (configuration not stated),-23,-2,0.9,0%,-6,
COc1ccccc1NC(=O)CC(=O)Nc1ccccc1OC,x,x,3.0,x,-9,
CCN(CC(=O)NCc1ccc(Cl)cc1)C(=O)CSc1ccccc1F,x,x,2.5,x,-4,
CCC1(c2ccc(F)cc2)NC(=O)N(CC(=O)Nc2cccc(S(=O)(=O)N3CCCCC3)c2)C1=O (configuration not stated),x,x,3.2,x,-10,
Cc1nc2nc[nH]n2c(=O)c1CCOC(=O)c1ccccc1F,x,6,-0.2,5%,-13,
CC(/C=C1\N=C(SCc2ccccc2Cl)SC1=O)=C\c1ccccc1,-39,3,-1.0,8%,6,
CCN(CC)CC(O)CCCCCCCCC(=O)OC (configuration not stated),x,x,-0.2,-3%,-5,

# Structures from the list above containing an NH in an aromatic ring (2):
SMILES,YopH inh,Arbovirus anti,RecA splice inh,Mtb growth,Mtb bLac sens,others
CCCCNC(=O)c1cc2cc(OC)ccc2[nH]1,x,x,0.4,-7%,37,
Cc1nc2nc[nH]n2c(=O)c1CCOC(=O)c1ccccc1F,x,6,-0.2,5%,-13,

# More results:
SMILES,YopH inh,Arbovirus anti,RecA splice inh,Mtb growth,Mtb bLac sens,others
COc1cc2ccccc2cc1C(=O)O,-14,5,-2.0,-6%,-13,
Cc1cc(C)c2nc(C(F)(F)F)c(C#N)c(N)c2c1,-21,-6,-3.9,-6%,6,
C/C=C(/C(=C/C)c1ccc(O)cc1)c1ccc(O)cc1,-55,-6,2.4,-3%,4,
Cc1ccc(-c2noc(CCC(=O)NC3CCN(Cc4ccccc4)CC3)n2)cc1,-23,13,x,-13%,x,
COc1ccc(-n2c(C)nc3cc(C(=O)NCc4ccc5c(c4)OCO5)ccc32)cc1,-25,-19,1.5,7%,85,
CCSc1nnc(NC(=O)CSc2nnc(CNC(=O)c3ccccc3F)o2)s1,-36,-1,-3.1,-14%,-1,
CCOC(=O)N1CCN(C(=O)COc2cccc3c2CCN(Cc2ccccc2F)C3=O)CC1,-35,-25,0.6,-1%,4,
COc1ccccc1NC(=O)CCc1nnc2ccc(N3CCN(C)CC3)nn12,x,x,-5.5,x,-6,
CCN(CC)C(=O)CSc1nnc(-c2ccccc2)o1,-32,3,0.6,-8%,4,
CCOC(=O)c1sc(NC(C)=O)cc1C,-32,9,-1.3,2%,1,Arbovirus anti repeat=2
CCC(=O)N(Cc1cc2cc(OC)ccc2[nH]c1=O)c1ccc(C)cc1C,3,-15,3.7,-8%,-7,
N#CC(C(=O)OCc1ccccc1)c1nc2ccccc2nc1N1CCOCC1 (configuration not stated),-32,-1,0.9,0%,5,

# Reprinted from the part before: two compounds, followed by the next part.
SMILES,YopH inh,Arbovirus anti,RecA splice inh,Mtb growth,Mtb bLac sens,others
CCC(=O)N(Cc1cc2cc(OC)ccc2[nH]c1=O)c1ccc(C)cc1C,3,-15,3.7,-8%,-7,
N#CC(C(=O)OCc1ccccc1)c1nc2ccccc2nc1N1CCOCC1 (configuration not stated),-32,-1,0.9,0%,5,
COc1ccc(NC(=O)CN(C)CC(=O)Nc2ccccc2SC)cc1Cl,-17,0,-0.5,0%,29,
COc1ccc(C(=O)N(Cc2ccccc2)Cc2cc3cc4c(cc3[nH]c2=O)OCCO4)cc1,-34,-23,1.1,-6%,-3,
Cc1ccc(NC(=O)COC(=O)C2C3CC4OC(=O)C2C4C3)cc1 (configuration not stated),x,x,-4.6,x,-6,
Cc1ccccc1Nc1nc(N)nc(CSc2n[nH]c(N)n2)n1,x,x,-0.7,x,-11,
COc1ccc2c(c1)cc(C(=O)N[C@H](C(=O)N1CCC(C(=O)O)CC1)C(C)C)n2C,x,x,-1.5,x,0,
CCn1cc([N+](=O)[O-])c(C(=O)N2N=C(c3ccc4ccccc4c3)CC2c2cc(Br)ccc2O)n1 (configuration not stated),-13,-37,0.5,u,94,
Cc1ccc(C(=O)NCC(=O)N2CCC3(CC2)NCCc2[nH]cnc23)cc1C,x,x,5.7,x,-8,
Cc1nc2ccccc2c(=O)n1NC(=O)C1CCCCC1,19,2,-0.7,-6%,-6,
COc1ccc(/C=N/n2cnnc2)cc1Cn1nc(C)c([N+](=O)[O-])c1C,x,2,-1.3,-5%,3,
COCc1cc(=O)[nH]c(Nc2nc(C)c3ccccc3n2)n1,0,-25,0.6,1%,-1,
CC1=CC2=NC(=O)/C(=C\c3cccn3CCOc3ccc(C)c(C)c3)C(=N)N2O1,5,-2,6.3,4%,8,
CC1CCCCN1CCCNC(=O)c1cc(Br)c(Br)[nH]1 (configuration not stated),x,-6,0.1,4%,-6,
Cc1ccc(-c2nnn(CC(=O)N(Cc3ccco3)C(C(=O)NC3CCCC3)c3cccs3)n2)o1 (configuration not stated),-20,0,0.1,-2%,-9,
CCc1ccc(NC(=O)CCCN2C(=O)C3CC=CCC3C2=O)cc1 (configuration not stated),x,x,-1.9,x,37,
Cc1ccc2c(c1)C1CN(C)CCC1N2C(=O)/C=C/c1ccc2c(c1)OCO2 (configuration not stated),x,-15,-1.8,9%,3,
CCCC12CN3CC(C)(CN(C1)C3c1ccc(OC(C)C)cc1)C2=O (configuration not stated),-27,0,0.0,-4%,-10,
Cn1c(=O)c2c(nc(SCc3ccccc3)n2Cc2ccc(Cl)cc2)n(C)c1=O,-9,-1,-4.6,-4%,38,
O=C(O)c1cnn(-c2nc(-c3ccc(Cl)cc3)cs2)c1C(F)(F)F,x,x,3.3,x,5,
Cn1c(C(=O)NCCN2CCCCCC2)cc2c(=O)n(C)c3ccccc3c21,-44,-3,-0.1,40%,3,Arbovirus anti repeat=-5
Cc1cc(C)c2c(NC(=S)NC(=O)c3ccccc3)n[nH]c2n1,x,5,-1.4,2%,2,
COc1ccc(CCNS(=O)(=O)c2cn(C)c(=O)n(C)c2=O)cc1,-44,2,0.3,-2%,-2,
O=C1C(C=NCC2CCCO2)=C(O)c2ccccc21 (configuration not stated),-30,1,1.1,0%,3,
O=C(CN(C(=O)CCC(=O)Nc1nccs1)c1ccc2c(c1)OCO2)NCc1ccccc1,x,x,2.5,x,0,
COc1ccc(C(c2nnnn2CCc2ccccc2)N2CCN(C3CCCC3)CC2)cc1OC (configuration not stated),-46,0,0.7,-2%,-6,
CC(=O)c1cc2c(cc1NC(=O)CSc1nc3ccc(C)cc3[nH]1)OCO2,-37,-1,-4.1,0%,-5,
CCCc1nc(SCC(=O)N2CCc3ccccc32)c2c(C)c(C)sc2n1,-9,4,3.2,x,5,
COC(=O)c1ccccc1NC(=O)C1CCN(C(=O)N2CCOc3ccccc32)CC1,x,x,2.5,x,9,
Cc1cc(NC(=O)CN2CCN(S(=O)(=O)c3ccc4ccccc4c3)CC2)no1,-12,16,-1.6,-4%,-16,
COc1cc2c3c(c1)c(C1=NC(=S)NC1=O)c(O)n3C(C)(C)C=C2C,0,3,0.4,-1%,-1,
Cc1ccc(C(=O)Cn2c(-c3ccccc3)noc2=O)cc1,x,3,x,3%,-4,
CCO[C@@H]1OC(C(=O)NC2CC2)=C[C@H](c2ccc(Br)cc2)[C@H]1CCCO,x,x,0.0,-14%,-3,
O=C1CCCc2nc(N3CCN(C(=O)c4ccco4)CC3)ncc21,x,x,-1.2,x,-18,
CCCC1S/C(=N/N=C/c2ccc(OC)cc2)N(Cc2ccccc2)C1=O (configuration not stated),17,15,1.0,-16%,-2,
COc1cc(F)ccc1S(=O)(=O)N1CCN(Cc2ccccc2)CC1,x,x,3.1,x,-1,
NC(=O)c1ccccc1N/C=C/C(=O)c1cccs1,-42,-9,-10,-12%,3,
CCOc1cc(S(=O)(=O)N(CC)CC)ccc1F,-11,2,0.8,-11%,12,
Cc1nc(C)c(C(=O)C2=C(O)C(=O)N(CCN(C)C)C2c2cccs2)s1 (configuration not stated),-5,6,-1.3,6%,3,
COc1ccc(C2C(=O)N(C3CCCCC3)CC(=O)N2CC2COc3ccccc3O2)cc1 (configuration not stated),-17,8,x,-13%,-1,
Fc1cccc2sc(Nc3nc4c(F)cccc4s3)nc12,-23,-8,-1.7,43%,4,
Cc1c(C(=O)NCC2CCCO2)oc2ccc(S(=O)(=O)N3CCCCC3)cc12 (configuration not stated),-33,3,-0.1,x,7,Arbovirus anti repeat=-1
COc1ccc(NC(=O)C2CCCN2C(=O)NCc2ccccc2)cc1 (configuration not stated),x,10,4.8,6%,-7,
COC(=O)c1sc(NC(=O)c2ccco2)c(C#N)c1C,x,x,1.7,-8%,-1,
c1ccc(Nc2scc(-c3ccccc3)[n+]2Cc2ccco2)cc1,x,4,11,8%,-6,
NC(=O)C1CCN(Cc2nc3c(Br)cc(Br)cc3c(=O)[nH]2)CC1,x,10,1.1,1%,0,
CC(C)CC(=O)NC1(C(F)(F)F)C(=O)Nc2c1c(=O)n(C)c(=O)n2C (configuration not stated),-27,0,0.9,3%,1,
COc1ccc(OC(=O)CCN2C(=O)C3C4C=CC(C4)C3C2=O)cc1 (configuration not stated),x,-6,-1.6,-2%,3,
COc1cc(OC)cc(C(=O)Nc2ccc3c(c2)COC3=O)c1,-22,-5,-1.0,-4%,1,
O=C(OCCN1CCCCC1)c1cccc(F)c1,x,x,0.9,x,-11,
CCSc1ncnc2c1oc1ccccc12,-19,0,4.1,6%,-9,
Cc1ccc(-n2c(N)c(C#N)c(-c3ccc(Cl)cc3)c(C#N)c2=O)cc1,-10,-4,-4.9,-3%,-5,
Cn1c(=O)n(C)c2cc(S(=O)(=O)Nc3ccccc3)ccc21,x,-3,0.0,1%,-7,
O=[N+]([O-])/C(N=Nc1ccccc1)=N\Nc1ccccc1,x,-6,0.7,-3%,1,
COc1ccccc1N1CC(C(=O)Nc2ccc3c(c2)OCO3)CC1=O (configuration not stated),x,15,-1.5,6%,-4,
c1ccc(C(c2nnnn2C2CCCC2)N2CCN(c3ccccc3)CC2)cc1 (configuration not stated),-16,-12,8.9,1%,-5,
O=C(CSc1nncn1-c1ccccc1)Nc1ccccc1F,x,x,-7.4,x,10,

# Screening results deposited in PubChem by several laboratories.

# This is a subset; count on the stated rates, not on these rows.
